Screening data deposited in PubChem BioAssay by ICCB-Longwood Screening Facility, Harvard Medical School.
GIV Gai3 FP – GIV-Galpha-i interaction inhibition; percent of control (FP), % (concentration not given with the values); hit rate 0.42% among 210,000; Galpha-i3/FITC-GIV peptide fluorescence polarization, 90 min; active compounds read low; scaled: aluminum fluoride 0%, vehicle 100%;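 active = replicate mean at 85% of control or lower, very high polarization wells dropped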;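 also: wells of about 15 µL received 100 nL stock; the first replicate is given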
Target sequence (P08753 whole entry, looked up): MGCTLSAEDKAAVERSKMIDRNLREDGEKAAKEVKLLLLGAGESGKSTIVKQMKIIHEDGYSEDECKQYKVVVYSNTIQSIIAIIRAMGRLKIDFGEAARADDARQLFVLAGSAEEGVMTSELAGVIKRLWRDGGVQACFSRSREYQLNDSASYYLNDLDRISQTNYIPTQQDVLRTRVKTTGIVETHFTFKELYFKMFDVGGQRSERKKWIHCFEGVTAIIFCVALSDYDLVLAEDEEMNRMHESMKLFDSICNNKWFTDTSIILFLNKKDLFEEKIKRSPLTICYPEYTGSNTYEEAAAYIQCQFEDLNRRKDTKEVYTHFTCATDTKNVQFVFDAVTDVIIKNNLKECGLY
An asterisk follows results filed as active. A portion of the library, so the mix of outcomes need not match the whole.

SMILES	GIV Gai3 FP
Cc1cccc(-n2ncc3c(Nc4c(C)n(C)n(-c5ccccc5)c4=O)ncnc32)c1	104
CCOC(=O)CSc1nc2c(sc(=S)n2-c2ccccc2OCC)c2nc3ccccc3n12	103
O=C(CSc1nc2cc(C(=O)NCC3CCCO3)ccc2c(=O)n1Cc1ccco1)c1ccccc1 (configuration not stated)	111
CN(C)c1ccc(CNC(=O)c2ccccc2CN2C(=O)C3CCCN3C(=O)c3ccccc32)cc1 (configuration not stated)	105
Cc1ccccc1NC(=O)CSc1nc2c(c(-c3ccco3)c1C#N)CCCC2	106
Cc1ccc2c(c1)C(O)(CC(=O)c1ccc(N(C)C)cc1)C(=O)N2 (configuration not stated)	109
COc1ccc(N2CCN(C(=O)CSc3nc4[nH]ncc4c(=O)n3-c3ccccc3OC)CC2)cc1	120
COc1ccc(NC(=O)C2CCN(c3cc(=O)n(C)c(=O)n3C)CC2)cc1OC	99
Cc1sc2ncnc(SCC(=O)Nc3sc4c(c3C#N)CCCC4)c2c1C	100
COC(=O)C1=CN(C2CC2)c2cc(N3CCSCC3)c(F)cc2S1(=O)=O	101
CCOCCCNC(=O)Cn1c(=O)c(=O)n(C)c2ncccc21	107
CCOc1cccc2c1OC1(CCC(C)CC1)N1N=C(c3cccnc3)CC21 (configuration not stated)	106
CCCCCCOc1ccc(C2C3=C(CC(C)(C)CC3=O)NC3=C2C(=O)CC(C)(C)C3)cc1	105
Cc1sc(-c2nc(-c3cccc(Cl)c3)no2)cc1S(=O)(=O)N1CCc2ccccc2C1	105
CCOc1ccc(NS(=O)(=O)c2cc(C(=O)N3CCN(C)CC3)ccc2NCCc2ccc(Cl)cc2)cc1	110
COc1cc(C2C(C#N)=C(N)OC3=C2C(=O)CCC3)cc(OC)c1OC(=O)N1CCOCC1 (configuration not stated)	114
Cc1cc(C2CCCN2C(=O)c2cc(C(C)C)no2)no1 (configuration not stated)	101
O=C(c1ccsc1)N1CCN(S(=O)(=O)c2cc(-c3noc(C4CCC4)n3)cs2)CC1	94
O=C(Nc1nc2c(F)cccc2s1)c1ccc(S(=O)(=O)N2CCc3ccccc3C2)cc1	101
O=C(CSc1nc2ccccc2c(=O)n1C1CCCCC1)NCCc1ccccc1	108
O=C(c1ccc2c(=O)n(Cc3ccc(Cl)cc3)c(=S)[nH]c2c1)N1CCN(c2ccccn2)CC1	107
CC(=O)Nc1ccc(NS(=O)(=O)c2cc(-c3cc(C(F)(F)F)on3)sc2C)cc1	98
Cc1cc(NC(=O)CSc2nc(NCCc3ccccc3)c3ccccc3n2)no1	114
O=[N+]([O-])c1cc(S(=O)(=O)NC2CCCCC2)cc2c1-c1c(cc(S(=O)(=O)NC3CCCCC3)cc1[N+](=O)[O-])C2=NO	107
CCOC(=O)C1C(=O)C=C(O)C(C(=O)OCC)C1c1ccc(OC)cc1 (configuration not stated)	111

Laid out differently: 7 of the compounds above
| mol | GIV Gai3 FP |
| --- | --- |
| COc1cc(C2C(C#N)=C(N)OC3=C2C(=O)CCC3)cc(OC)c1OC(=O)N1CCOCC1 (configuration not stated) | 114 |
| Cc1cc(C2CCCN2C(=O)c2cc(C(C)C)no2)no1 (configuration not stated) | 101 |
| O=C(c1ccsc1)N1CCN(S(=O)(=O)c2cc(-c3noc(C4CCC4)n3)cs2)CC1 | 94 |
| O=C(Nc1nc2c(F)cccc2s1)c1ccc(S(=O)(=O)N2CCc3ccccc3C2)cc1 | 101 |
| O=C(CSc1nc2ccccc2c(=O)n1C1CCCCC1)NCCc1ccccc1 | 108 |
| O=C(c1ccc2c(=O)n(Cc3ccc(Cl)cc3)c(=S)[nH]c2c1)N1CCN(c2ccccn2)CC1 | 107 |
| CC(=O)Nc1ccc(NS(=O)(=O)c2cc(-c3cc(C(F)(F)F)on3)sc2C)cc1 | 98 |

Next structures follow:
SMILES	GIV Gai3 FP
O=c1[nH]c2c(c(=O)[nH]1)C(c1cc([N+](=O)[O-])c(N3CCOCC3)cc1N1CCOCC1)O2 (configuration not stated)	104
COc1ccc2c(c1)N(C1CCCCC1)/C(=C1/SC(=S)N(C)C1=O)S2	109
Cc1cccc(NC(=O)C(C)Oc2ccc(-c3cnc4ccccc4n3)cc2)c1 (configuration not stated)	100
Cc1c(C(=O)NCc2ccccn2)sc2ncnc(N3CCN(c4ccccc4F)CC3)c12	110
Cc1ccc(-c2cnc(N3CCCC(C(=O)N4CCN(C)CC4)C3)nc2)cc1 (configuration not stated)	100
CCOCCCn1c(=S)[nH]c2cc(C(=O)N3CCC(C(N)=O)(N4CCCCC4)CC3)ccc2c1=O	111
Cc1cccc(Oc2c(C(F)(F)F)oc3cc(OC(=O)c4ccco4)ccc3c2=O)c1	108
COc1ccc(N2C(=O)C3ON(C4SC(=S)N(C)C4(C)C)C(c4ccc(Cl)cc4)C3C2=O)cc1 (configuration not stated)	107
COc1ccc(OC)c(S(=O)(=O)Nc2ccc(-c3ccc4cc(C)ccc4n3)cc2)c1	98
Clc1ccc(Nc2nc3nonc3nc2N2CCCCC2)cc1	106
CCCCCCCCOc1ccc(C2Nc3cccc4cccc(c34)C(=O)CS2)cc1 (configuration not stated)	102
CCCN(C)Cc1nc2nc(C)cc(N3CCC(C)CC3)n2n1	105
CCn1c(C)nnc1SCc1nc(-c2ccc(OC)cc2)oc1C	103
CCCOc1ccc(C2C(C(=O)OCC)=CN(Cc3ccc(OC)cc3)C=C2C(=O)OCC)cc1OC	98
O=C(Cc1cccc2ccccc12)NCC1(c2ccccc2)CCOCC1	117
O=C(c1ccccc1F)N1CCCN(Cc2noc(-c3ccccc3)n2)CC1	98
CC(C)NC(=O)c1cc(-c2ccccn2)nc2ccc(S(=O)(=O)N3CCOCC3)cc12	108
Cc1onc(-c2ccc(F)cc2)c1C(=O)NC(C)C	110
CCOC(=O)c1c(NC(=S)NC(=O)c2ccccc2)sc2c1CC(C)(C)OC2	100
CCC(=O)N1CCc2cc(N3CC(C(=O)NCC4CC4)CC3=O)ccc21 (configuration not stated)	102
CC(=O)C12c3ccccc3C(c3ccccc31)C1C(=O)N(c3cc(C(F)(F)F)ccc3Cl)C(=O)C12 (configuration not stated)	110
Cc1noc(C)c1C1CCCN1C(=O)c1cc(C(F)(F)F)nn1C (configuration not stated)	97
Cc1ccsc1CN1CCCC1c1c(C)noc1C (configuration not stated)	99
Cc1ccc(-n2sc3c(c2=S)-c2ccccc2NC3(C)C)cc1	107
CC(C)c1ccc(S(=O)(=O)c2cnc(N3CCN(C4CCCCC4)CC3)nc2N)cc1	99
Following part
SMILES	GIV Gai3 FP
CCOC(=O)c1cnc2ccccc2c1Nc1ccc(C(=O)OC)cc1	104
O=C(c1ccco1)N(NC(=O)C(O)(c1ccccc1)c1ccccc1)c1cccc(Cl)c1	102
O=S(=O)(NC1CCCc2ccccc21)c1cc(-c2noc(C3CCC3)n2)cs1 (configuration not stated)	96
O=c1cc(CSc2nnc3c4ccccc4nc(-c4ccccc4)n23)nc2ccc(Cl)cn12	97
Cc1cc(C)c(S(=O)(=O)Nc2ccc(N3CCNCC3)c(C(=O)N3CCOCC3)c2)c(C)c1	104
COc1ccc(NC(=O)Nc2nnc(SCC(=O)Nc3ccc4c(c3)OCO4)s2)cc1	97
COCCn1c(CNC(=O)c2ccc(OC)cc2OC)nc2cccnc21	117
CC1=CC(C)C2(CO)COC(c3ccccc3O)C1C2C (configuration not stated)	103
Cc1cc(N2CCCC2)nc2ccc(NC(=O)c3ccccn3)cc12	103
Cc1ccc(-c2nc(CN3CCCC(C(=O)Nc4ccc(Br)cc4)C3)no2)cc1 (configuration not stated)	99
Cc1ccc(CNC(=O)C2CCC(=O)N2C(C)C)cc1 (configuration not stated)	108
Cc1sc(C)c(S(=O)(=O)NCc2ccccc2)c1-c1cc(C(F)(F)F)on1	101
O=C(NC1(C(=O)Nc2ccc(Br)cc2)CCCCC1)c1cccc(O)c1	106
N#Cc1c2n(c3c(=O)n(Cc4ccccc4Cl)cnc13)CCCC2	120
c1ccc(-n2cnnc2C2CCCN(CCN3CCCC3)C2)cc1 (configuration not stated)	105
O=C(c1ccccc1)N1CCc2cc(CNS(=O)(=O)c3ccc(F)cc3)ccc21	103
C#CCOc1ccc(/C=C2/C(=O)N(c3ccc(Cl)c(C(=O)O)c3)N=C2C)cc1OCC	101
CCC(=O)Nc1cccc(-c2noc(C3CCCN(C(=O)c4cccc(Br)c4)C3)n2)c1 (configuration not stated)	101
COc1ccc(OC)c(-c2nc(-c3ccc(Br)cc3)c(-c3ccc(Br)cc3)[nH]2)c1	103
Fc1ccccc1CNC1=NCCNC12CCCCC2	103
Cc1ccc(CNS(=O)(=O)c2cc(-c3cc(C(F)(F)F)[nH]n3)sc2C)o1	101
CCCCCNc1ncnc2c1sc1nc(N3CCOCC3)c3c(c12)CCCC3	103
CCOc1ccc(S(=O)(=O)Nc2ccc(CCc3nc4ccccc4n3CC)cc2)cc1	144
Cc1noc(COC2CCCN(S(=O)(=O)c3cn(C)c(C)n3)C2)n1 (configuration not stated)	106
FC(F)(F)C1(C(F)(F)F)N=C(c2ccncc2)OC(N2CCOCC2)=N1	105

Four entries already listed, sorted by the number in GIV Gai3 FP, rising.
SMILES	GIV Gai3 FP
O=S(=O)(NC1CCCc2ccccc21)c1cc(-c2noc(C3CCC3)n2)cs1 (configuration not stated)	96
COc1ccc(NC(=O)Nc2nnc(SCC(=O)Nc3ccc4c(c3)OCO4)s2)cc1	97
Fc1ccccc1CNC1=NCCNC12CCCCC2	103
Cc1ccc(CNC(=O)C2CCC(=O)N2C(C)C)cc1 (configuration not stated)	108

The results go on:
SMILES	GIV Gai3 FP
O=C(c1cccc(-c2nc(-c3ccccc3)no2)c1)N1CCc2ccccc21	104
CC(C)CN(CC(C)C)CC(O)CN(c1ccccc1)S(=O)(=O)c1ccc2ccccc2c1 (configuration not stated)	107
Cc1ccc(CNC2=NCCCNC23CCCC(C)C3)cc1 (configuration not stated)	109
NC(=O)c1ccc(NC(=O)c2ccc(=O)n(Cc3cccc(Cl)c3)c2)cc1	94
CCOC(=O)c1c(NC(=O)C(C)Sc2nnc(CNC(=O)c3ccccc3F)n2C2CCCCC2)sc2c1CCC2 (configuration not stated)	108
CN(c1ccc(Br)cc1)S(=O)(=O)c1ccc2[nH]cc(C(=O)N3CCC4(CC3)OCCO4)c(=O)c2c1	108
Cc1cccc2c(Sc3ccccc3)c(CC(=O)Nc3ccccc3)n(Cc3ccccc3)c12	110
CCN(Cc1ccccc1)C(=O)C1CCN(c2ncnc3c2oc2ccccc23)CC1	109
C=CCc1ccccc1OCCOc1ccc(-c2nc3sc4c(c3c(=O)[nH]2)CCCC4)cc1OC	104
CC1CC(C)CN(S(=O)(=O)c2ccc3c(c2)C(=O)c2cc(S(=O)(=O)N4CC(C)CC(C)C4)ccc2-3)C1 (configuration not stated)	102
CCOC(=O)C1=C(C)NC2=C(C(=O)c3ccccc32)C1c1cc(Cl)c(OC)c(OCC)c1 (configuration not stated)	111
CCOC(=O)C1=C(O)/C(=C/c2ccccc2Cl)SC1=Nc1ccccc1	117
CCCn1nccc1-c1csc(S(=O)(=O)NC(C)(C)CC)c1	101
O=C(Nc1ccc(NC(=O)c2ccc(Br)c(S(=O)(=O)N3CCOCC3)c2)cc1)c1ccccc1	105
CC12COC3(C(=O)Nc4ccc([N+](=O)[O-])cc4)CC1CCC32C (configuration not stated)	112
Cc1csc(-c2csc(S(=O)(=O)N3CCN(c4cccc(C)c4C)CC3)c2)n1	100
COc1ccc(-c2nn(CN3CCC(c4ccccc4)CC3)c(=S)n2-c2ccccc2)cc1	112
COCCNc1nc(SCC(=O)N2CCC(C)CC2)nc2ccccc12	107
Cc1cccc(OCC(=O)Nc2cc3c(cc2S(=O)(=O)c2ccccc2)n(C)c(=O)n3C)c1C	102
Cc1nn(-c2ccc3nncn3n2)c(C)c1CCC(=O)NCCC1=CCCCC1	104
CC(C)CC(=O)N1CCCN(C(=O)Nc2ccc(S(=O)(=O)N3CCOCC3)s2)CC1	106
Cn1c(=O)c2nscc2n(CC(=O)NC2CCCCC2)c1=O	107
CCCCn1c(CNC(=O)c2ccc(OC)cc2)nnc1SCC(=O)Nc1sc2c(c1C(=O)OCC)CCC2	104
COc1ccc(-c2csc(=Nc3ccc(OC(F)(F)Cl)cc3)n2CCc2ccc(S(N)(=O)=O)cc2)cc1F	103
CS(=O)(=O)N1CCN(c2ncnc3c2nnn3-c2cccc(F)c2)CC1	102
(list continues)
SMILES	GIV Gai3 FP
O=c1c2cc3c(cc2nc(SCc2nc(-c4cccc(Cl)c4)no2)n1C1CCCC1)OCO3	103
O=S(=O)(NCc1cccs1)c1cc(-c2nnc(C3CC3)o2)cs1	108
Cc1ccnc(N2CCC(C(=O)NCc3ccccn3)CC2)n1	101
CN(Cc1ccccc1)C(=O)CS(=O)Cc1cnn(-c2ccccc2)c1-n1cccc1 (configuration not stated)	103
Cn1c(=O)c2nc(S(=O)(=O)CCC(=O)Nc3cc(F)ccc3Cl)n(C)c2n(C)c1=O	105
CCOC(=O)C1=CN(Cc2ccc(F)cc2)C=C(C(=O)OCC)C1c1cc(Br)c(OCC)c(OC)c1	98
CCSc1nnc(-c2nn(C)c3c2CN(S(=O)(=O)c2ccc(C)c(Cl)c2)CC3)n1CC	108
COc1cc(OC)cc(N2C=C(C#N)S(=O)(=O)c3cc(F)ccc32)c1	100
Cc1cc(C)c2c(n1)sc1c(=O)n(-c3cccc(C(=O)Nc4cccc(F)c4)c3)cnc12	102
COc1ccc(-c2nn(-c3ccccc3)cc2/C=C2/NC(=S)N(c3ccccc3)C2=O)cc1	102
CCC(Sc1nc(Nc2cc(OC)cc(OC)c2)c2ccccc2n1)C(=O)NCc1ccco1 (configuration not stated)	106
CC(=O)OCC1OC(n2cc(Br)c(=O)[nH]c2=O)C(OC(C)=O)C1OC(C)=O (configuration not stated)	110
